MenB inh: inhibitors of Mycobacterium tuberculosis MenB enzyme; 0.43% of 100,000 active; AID 540299; P9WNP5; inhibition, %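 (about 12 µg/mL by stock and volumes)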; MenB enzyme assay, absorbance read-out; some hits fall short of the stated cut;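 active = mean of two replicates above 30%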;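 note: 0% = no compound and 100% = wells with inactive enzyme; the first replicate is given; strong numbers were not always called active; inactives centre near -10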
Target sequence (P9WNP5 whole entry, looked up): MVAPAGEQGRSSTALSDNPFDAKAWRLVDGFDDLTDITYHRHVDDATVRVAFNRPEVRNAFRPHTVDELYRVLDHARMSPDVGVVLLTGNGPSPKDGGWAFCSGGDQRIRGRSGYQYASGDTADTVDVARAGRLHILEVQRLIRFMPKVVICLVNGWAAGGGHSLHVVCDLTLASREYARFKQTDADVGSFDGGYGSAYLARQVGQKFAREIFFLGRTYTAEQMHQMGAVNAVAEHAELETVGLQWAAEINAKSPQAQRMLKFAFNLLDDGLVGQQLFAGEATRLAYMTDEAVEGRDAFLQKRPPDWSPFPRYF
MbtI inh: blocks the Mycobacterium tuberculosis siderophore enzyme MbtI; inhibition, %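 (about 17 µg/mL by stock and volumes)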; 0.89% of 100,000 active; P9WFX0; purified MbtI enzyme, fluorescence intensity read-out;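 active = above 50% in both replicates, above 80% if mildly self-fluorescent; inactive = the rest, strongly fluorescent compounds included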;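 note: 0% = mean of negative and 100% = mean of positive controls; one replicate is shown; some compounds called inactive have numbers as strong as hits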
PV pol inh: poliovirus RNA polymerase inhibition; P03300; poliovirus polymerase elongation, fluorescence polarization; hits give low values; % elongation, % (compound at 16.7 µg/mL); 0.66% of 150,000 active; AID 588519; in the data active = % elongation below about 90%; note: some results filed as inactive read as strong as hits
Target sequence (P03300 1749-2209 limits assumed): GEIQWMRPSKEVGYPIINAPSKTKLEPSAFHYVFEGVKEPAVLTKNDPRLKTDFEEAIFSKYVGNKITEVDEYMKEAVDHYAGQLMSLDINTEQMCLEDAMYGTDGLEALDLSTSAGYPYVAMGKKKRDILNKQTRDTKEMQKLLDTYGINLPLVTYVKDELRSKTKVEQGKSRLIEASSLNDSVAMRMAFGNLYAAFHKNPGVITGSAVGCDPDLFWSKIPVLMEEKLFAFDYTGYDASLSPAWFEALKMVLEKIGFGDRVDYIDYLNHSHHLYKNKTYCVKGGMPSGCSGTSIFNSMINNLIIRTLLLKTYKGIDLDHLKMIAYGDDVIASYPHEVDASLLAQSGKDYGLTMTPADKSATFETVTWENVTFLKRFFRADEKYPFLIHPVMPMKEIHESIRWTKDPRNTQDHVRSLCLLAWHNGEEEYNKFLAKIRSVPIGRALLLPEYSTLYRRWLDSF
PV pol inh intensity: further read-out of PV pol inh, marked with its call; % elongation; measured here: total intensity read-out; formula for this scale not given here;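 total fluorescence in place of polarization; lower means less elongation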
An asterisk follows results filed as active; i = inactive; . = no result given; & = joins results of further samples.

(1) CCOc1ccc([C@@H]2[C@H](C(=O)O)c3ccccc3C(=O)N2Cc2ccccc2)c(O)c1
(2) NC(CO)CSCc1ccccc1 (configuration not stated)
(3) C=CCn1c(=O)/c(=C/c2sccc2C)s/c1=C(/C#N)C(=O)NCc1ccco1
(4) COc1cc2c(cc1OC)C(c1ccccc1)N(C(=O)COC(=O)C1=NNC(=O)CC1)CC2 (configuration not stated)
(5) CC1CCCC(C)N1C(=O)COC(=O)c1ccccc1I (configuration not stated)
(6) O=C1N=C(N2CCN(c3ccccc3)CC2)SC1Cc1ccccc1 (configuration not stated)
assay / compound,1,2,3,4,5,6
MenB inh,9.3,-36.2,-44.7,-25.3,.,-13.5
MbtI inh,2.6,12.9,1.2,1.6,-0.3,-7.8
PV pol inh,69.0*,102.0,46.0,103.0,103.0,101.0
PV pol inh intensity,67.0*,104.0,241.0,101.0,97.0,101.0

(7) N[C@H]1CONC1=O
(8) CCOC(=O)c1c(C)sc2c3c([nH]c12)CCCC3
(9) Cc1ccc2nsnc2c1S(=O)(=O)NC1CC1
(10) CC(=O)NCCn1c(SCc2cc(F)ccc2F)nc2ccccc2c1=O
(11) O=c1c2ccccc2n2c(-c3ccsc3)nnc2n1CCc1ccccc1
(12) Cc1ccc(C2=NC(CC(C)C)NC(c3ccccc3O)C2)cc1 (configuration not stated)
assay / compound,7,8,9,10,11,12
MenB inh,2.7,-30.8,2.1,17.2,14.5,-7.2
MbtI inh,-9.1,-10.4,11.2,-2.2,-12.8,-27.8
PV pol inh,99.0,113.0,101.0,97.0,98.0,100.0
PV pol inh intensity,103.0,157.0,105.0,100.0,102.0,97.0

Compound profiles (already shown). Screens in order: MenB inh	MbtI inh	PV pol inh	PV pol inh intensity
N[C@H]1CONC1=O is listed as 2.7	-9.1	99.0	103.0
O=c1c2ccccc2n2c(-c3ccsc3)nnc2n1CCc1ccccc1 is listed as 14.5	-12.8	98.0	102.0

The list goes on:
(13) Cc1nnc(C)n1/N=C/C=C/c1ccccc1
(14) CC(=O)N(CC(O)CN(C(C)=O)c1c(I)c(C(=O)NCC(O)CO)c(I)c(C(=O)NCC(O)CO)c1I)c1c(I)c(C(=O)NCC(O)CO)c(I)c(C(=O)NCC(O)CO)c1I (configuration not stated)
(15) O=C1c2ccc(F)cc2C(=O)N1CCO
(16) Nc1c(-c2nnnn2-c2ccccc2)cnc2ccccc12
(17) COc1ccc(C(C(=O)NC2CCCC2)N(Cc2ccco2)C(=O)c2ccco2)cc1 (configuration not stated)
(18) CC(C)(C)NC(=O)NC(=O)CN1CCC(Cc2ccccc2)CC1
assay / compound,13,14,15,16,17,18
MenB inh,-28.8,-4.4,4.2,-5.7,-26.2,0.1
MbtI inh,37.9,-9.4,-5.3,-43.4,-6.0,28.4
PV pol inh,104.0,99.0,99.0,103.0,98.0,101.0
PV pol inh intensity,102.0,101.0,102.0,98.0,99.0,95.0

(19) CNC(=O)c1cccc(Oc2ccccc2)c1
(20) O=C(CSc1ccccn1)NC1CCCC1
(21) CC1CN(C(=O)c2ccccc2)OC(c2ccc3c(c2)OCO3)O1 (configuration not stated)
(22) Cc1cc(N2CCN(C)CC2)ccc1NC(=O)CNC(=O)C12CC3CC(CC(C3)C1)C2
(23) O=C1c2ccccc2-c2onc3ccc(N4CCOCC4)c1c23
(24) CCOc1ccccc1N/C=C/C(=O)C(C)(C)C
assay / compound,19,20,21,22,23,24
MenB inh,-15.2,-2.9,1.2,4.6,-10.3,-7.6
MbtI inh,3.6,4.2,.,6.2,6.4,-12.4
PV pol inh,102.0,102.0,107.0,98.0,93.0,101.0
PV pol inh intensity,98.0,95.0,102.0,97.0,127.0,103.0

(25) O=c1[nH]c2ccc(Cl)cc2c(-c2ccccc2)c1CN1CCCCC1
(26) CCCCCNc1nc(C(C)C)c2c(c1C#N)CC(C)(C)OC2
(27) CN(CC(=O)Nc1ccc(N2CCOCC2)cc1)Cc1cc(=O)n2ccsc2n1
(28) O=C(Cc1ccccc1)NC1(C(=O)Nc2cccc(Cl)c2)CCCCC1
(29) O=C1SC(=S)N/C1=C/c1cccc(O)c1
(30) CC1CN(C2=NC(=O)/C(=C/c3ccccc3)S2)CC(C)O1 (configuration not stated)
assay / compound,25,26,27,28,29,30
MenB inh,1.9,-21.4,11.6,-16.9,-191.8,-3.0
MbtI inh,39.6,20.4,6.2,.,.,7.2
PV pol inh,102.0,102.0,99.0,107.0,99.0,105.0
PV pol inh intensity,102.0,100.0,107.0,108.0,94.0,107.0

(31) Cc1cccc(OCc2nc(-c3ccccc3)no2)c1
(32) COc1ccc(-c2noc(CSc3nc4ccc(C)cc4[nH]3)n2)c(OC)c1
(33) Cc1nsc(N)c1C(=O)OCc1c(F)cccc1Cl
(34) CCc1nnc(SCc2ccccc2)c2cc3occc3n12
(35) CN(CCOc1ccc(Cl)cc1)c1nn(C)c(=O)n(C)c1=O
(36) CC12CC(NC(=O)N1Cc1ccccc1)c1ccccc1O2 (configuration not stated)
assay / compound,31,32,33,34,35,36
MenB inh,.,-14.0,-2.5,-23.7,-7.3,-3.5
MbtI inh,3.0,8.6,-5.3,3.6,-4.3,4.2
PV pol inh,103.0,100.0,111.0,101.0,103.0,102.0
PV pol inh intensity,100.0,99.0,111.0,98.0,107.0,98.0

(37) C(=Nc1cccnc1)c1ccccc1
(38) CCOC(=O)c1ccc2nc(C(F)(F)F)nc(N3CCCCC3)c2c1
(39) CSc1nc2c(cc1C#N)CCCCC2
(40) Clc1cccc(CNc2ccc3nnc(-c4ccccc4)n3n2)c1
(41) O=c1[nH]ccc2c(OCc3ccccn3)cccc12
(42) O=C1C=C(Nc2ccccc2)C(=O)c2ccccc21
assay / compound,37,38,39,40,41,42
MenB inh,.,-21.5,-6.7,-11.9,-4.7,-16.4
MbtI inh,23.4,-6.2,.,9.7,109.2,7.1
PV pol inh,103.0,102.0,105.0,103.0,103.0,99.0
PV pol inh intensity,98.0,109.0,109.0,107.0,106.0,102.0

(43) CN(Cc1nc(-c2ccccc2)no1)C(=O)c1ccccc1
(44) CCN(CC)CC#CC1(O)CCCCC1
(45) O=C1NC(=O)C(Cc2ccccc2)N1 (configuration not stated)
(46) O=C(Nc1ccc(S(=O)C(F)(F)F)cc1)c1ccccn1 (configuration not stated)
(47) CCc1nc2ccccc2n1Cc1cccc(S(=O)(=O)N2CCOCC2)c1
(48) COc1cccc(CNS(=O)(=O)c2ccc3[nH]c(=O)ccc3c2)c1
assay / compound,43,44,45,46,47,48
MenB inh,-9.3,-39.0,-2.2,11.1,-3.6,3.4
MbtI inh,-13.7,0.3,-13.1,-1.4,-2.1,24.1
PV pol inh,101.0,102.0,108.0,102.0,103.0,103.0
PV pol inh intensity,103.0,100.0,114.0,109.0,103.0,105.0

(49) CC(=O)NC1CC2CCC(C1)N2Cc1ccc(C)cc1 (configuration not stated)
(50) Cc1ccccc1Cn1cc(CCCC(=O)O)c2ccccc21
(51) O=C(Nc1ccccc1)Nc1ccc(S(=O)(=O)Nc2ccc(F)cc2)cc1
(52) CN1C(=O)C(C)(C)c2cc(S(=O)(=O)N(C)Cc3ccccc3)ccc21
(53) CCn1c(C(=O)NCCc2ccccc2)cc2oc3ccccc3c21
(54) O=c1c(=O)n(Cc2cccc(F)c2)ccn1Cc1ccccc1
assay / compound,49,50,51,52,53,54
MenB inh,-17.9,-7.9,-27.7,11.0,-15.8,-12.7
MbtI inh,-15.8,-24.6,.,1.1,i,148.7
PV pol inh,102.0,101.0,107.0,102.0,102.0,105.0
PV pol inh intensity,105.0,101.0,103.0,103.0,98.0,104.0

(55) CC(=O)Oc1ccc2c3c(c(=O)oc2c1)CCC3
(56) CC(NC(=O)CCc1nc2ccccc2s1)C1CC2CCC1C2 (configuration not stated)
(57) Cc1ccccc1C(=O)NC(NCc1ccco1)(C(F)(F)F)C(F)(F)F
(58) CCCC(CCC)C(=O)Nc1cc(-c2cn3cccnc3n2)ccc1C
(59) Cc1cc(Cl)ccc1OCC(=O)N=Nc1c(O)[nH]c(=O)[nH]c1=O
(60) COc1ccc(NC(C)=O)cc1NC(C)C(=O)NCC1CCCCC1 (configuration not stated)
assay / compound,55,56,57,58,59,60
MenB inh,.,.,-4.9,-23.5,8.9,-27.0
MbtI inh,i,-0.5,-5.4,104.3,-4.7,-1.7
PV pol inh,104.0,101.0,103.0,102.0,99.0,104.0
PV pol inh intensity,106.0,102.0,103.0,106.0,104.0,109.0

3 entries out of the list, arranged by count of non-hydrogen atoms, largest number first:
(58) CCCC(CCC)C(=O)Nc1cc(-c2cn3cccnc3n2)ccc1C
(60) COc1ccc(NC(C)=O)cc1NC(C)C(=O)NCC1CCCCC1 (configuration not stated)
(56) CC(NC(=O)CCc1nc2ccccc2s1)C1CC2CCC1C2 (configuration not stated)
assay / compound,58,60,56
MenB inh,-23.5,-27.0,.
MbtI inh,104.3,-1.7,-0.5
PV pol inh,102.0,104.0,101.0
PV pol inh intensity,106.0,109.0,102.0

Later entries:
(61) CC1(c2ccc(C#N)cc2)NC(=O)N(CC(=O)C23CC4CC(CC(C4)C2)C3)C1=O (configuration not stated)
(62) Cc1c(Br)sc2sc(-c3ccn(C)n3)c(C)c12
(63) O=C1NC(=O)C2C1ON(c1ccc(Cl)cc1)C2c1ccccc1 (configuration not stated)
(64) O=C(COc1ccccc1)N1CCN(C(=O)c2ccccc2)CC1
(65) O=C(OC1CCCCC1=O)c1cc2ccccc2[nH]1 (configuration not stated)
(66) Cc1ccc(CN(C)CC(=O)NCCc2ccc(S(N)(=O)=O)cc2)cc1
assay / compound,61,62,63,64,65,66
MenB inh,-18.8,-18.6,0.0,-4.9,-16.9,-6.2
MbtI inh,-14.4,8.7,37.1,5.1,102.2,-4.3
PV pol inh,107.0,104.0,101.0,100.0,104.0,106.0
PV pol inh intensity,110.0,100.0,103.0,98.0,108.0,110.0

(67) CCCCCC(=O)Nc1ccc(N2CCN(c3ccc(C(F)(F)F)cn3)CC2)nc1
(68) O=S(=O)(c1ccc(NCc2ccc3c(c2)OCO3)nc1)N1CCCC1
(69) COc1ccc2oc(=O)c(S(=O)(=O)c3ccccc3)cc2c1
(70) Cc1c(C(=O)NCc2cccc(Cl)c2)oc2ccc3c(c12)C(=O)CC(C)(C)O3
(71) Cc1cc(C)n(C(=O)CCC(=O)O)n1
(72) CCOC(=O)c1c(Nc2nc(C)cs2)sc2c1CCCC2
assay / compound,67,68,69,70,71,72
MenB inh,-4.0,-12.6,-28.5,-15.6,-7.9,-13.4
MbtI inh,-27.4,0.8,8.1,-2.9,35.6,9.2
PV pol inh,100.0,102.0,106.0,105.0,101.0,104.0
PV pol inh intensity,100.0,98.0,98.0,105.0,103.0,101.0

(73) Nc1ccc(CNc2ncn[nH]2)cc1
(74) O=C(O)CC(NC(=O)C(c1ccccc1)c1ccccc1)c1ccc(F)cc1 (configuration not stated)
(75) COc1ccc(OCC(=O)c2c(O)c3ccccc3oc2=O)cc1
(76) COc1ccc(CCn2c(NN)nc3ccsc3c2=O)cc1OC
(77) Cc1cc(C)n2nc(C(=O)N3CCCSC3=Nc3ccccc3)nc2n1
(78) CS(=O)(=O)N1N=C(c2ccc(Br)cc2)CC1c1nc2ccccc2[nH]1 (configuration not stated)
assay / compound,73,74,75,76,77,78
MenB inh,-14.4,0.5,-29.6,-13.7,12.7,8.7
MbtI inh,-2.6,0.1,11.6,-2.5,-15.8,2.9
PV pol inh,102.0,103.0,103.0,101.0,97.0,.
PV pol inh intensity,102.0,99.0,106.0,107.0,102.0,.

(79) COC(Cn1c(SCC(=O)c2cccc(C(F)(F)F)c2)nnc1-c1ccc(Cl)cc1)OC
(80) COC(=O)c1cc(COC(=O)COc2ccc(C)c(C)c2)oc1C
(81) Cn1nccc1C(=O)OCC(=O)c1ccccc1
(82) c1ccc(Cn2cc3c(-c4ccccc4)nnc-3c3ccccc32)cc1
(83) O=c1c2ccccc2c(/C=N/c2ccccn2)c(O)n1-c1ccccc1
(84) CN(C(=O)NC(=O)Nc1ccc(C=C(C#N)C#N)cc1)S(C)(=O)=O
assay / compound,79,80,81,82,83,84
MenB inh,-18.4,2.7,22.2,-18.2,-3.0,-115.9
MbtI inh,-4.2,-9.9,7.7,10.8,-14.0&-14.4,7.2
PV pol inh,100.0,107.0,102.0,103.0,101.0&104.0,95.0
PV pol inh intensity,104.0,110.0,102.0,98.0,105.0&106.0,96.0

(85) O=C(CS(=O)(=O)c1ccccc1)NCc1ccccc1
(86) COc1ccc(NS(=O)(=O)c2ccc(NC(=O)c3ccc(Br)o3)cc2)cc1
(87) Cc1cc(SCC(=O)c2cc(C)n(C)c2C)n2c(nc3ccccc32)c1C#N
(88) Cc1ccc(NS(=O)(=O)c2cccc(C(=O)NC(C)(C)C)c2)c(C)c1
(89) Cn1cc(CCC(=O)O)c2ccccc21
(90) Cc1cccc2cc(CN(Cc3ccco3)C(=O)N3CCOCC3)c(Cl)nc12
(91) COCCn1c(SCC(=O)c2ccccc2)nnc1-c1ccccc1
(92) C1CN(c2nc3nonc3nc2N2CCOCC2)CCO1
assay / compound,85,86,87,88,89,90,91,92
MenB inh,-27.6,-31.4,-1.2,.,-6.9,23.2,-10.6,-14.9
MbtI inh,-15.1,-15.9,-10.7,-13.4,90.5,3.5,3.5,2.5
PV pol inh,100.0,100.0,100.0,104.0,99.0,101.0,99.0,101.0
PV pol inh intensity,103.0,102.0,109.0,98.0,101.0,102.0,101.0,107.0

Screens (PubChem)
